ugtP null kill = growth inhibition of S. aureus ugtP deletion strain; S. aureus RN4220 ugtP deletion, OD600 growth, 16 h; some inactives read as strong as hits; growth inhibition, % (test concentration not listed); 330,000 compounds, 0.54% hits; AID 1259309;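 active means z-score under -3 and OD600 up to 0.15 on both plates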;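 further: plate controls were untreated wells for no effect and antibiotic for full effect; wells of about 80 µL received 100 nL stock; the first replicate is given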
Sa RN4220 lethal = kills Staphylococcus aureus RN4220; inhibition, % (concentration not given with the values); AID 1259311; 330,000 compounds, 0.33% hits; S. aureus RN4220 growth, OD600, 16 h;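 active means z-score of -3 or lower and OD600 up to 0.18 on both plates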;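 further: plate controls were untreated cells for no effect and reference antibiotic for full effect; stock transfer was 100 nL into about 80 µL; one replicate is shown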
BJeLR viability = kills HRASV12-expressing BJeLR cells | BJeLR (HRASV12) viability, CellTiter-Glo ATP luminescence, 48 h; reference of the scale not given here | inhibition, % (no concentration beside the values) | 300,000 compounds, 0.17% hits;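 active means replicate mean above 50%; inconclusive means above 50% but judged a plate artefact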;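 further: 50 nL library stock added to about 25 µL; numbers are from one replicate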
PrP UTR inh = inhibition of PrP 5' UTR reporter expression | inhibition, % (no concentration beside the values) | AID 488862 | 340,000 compounds, 0.35% hits | cell-based PrP 5' UTR mRNA reporter, plate reader;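 active means every replicate at 50% or more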;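 further: 0 = median of the neutral control wells; tested in H4 reporter cells; numbers are from one replicate; inactives centre near -14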
Mtb hypoxia rep = Mtb hypoxia fluorescent reporter inhibition. M. tuberculosis hypoxia-regulated fluorescent reporter, fluorescence. fluorescence inhibition, % (concentration not given with the values). 300,000 compounds, 0.1% hits;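 active means 35 to 45% if threefold the growth effect, above 45% if 1.5-fold the growth effect; inactive means the rest, general growth blockers included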;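 further: wells of about 50 µL received 100 nL stock; 0% = vehicle wells and 100% = reference inhibitor wells; whole bacteria with a GFP reporter of the hypoxia response; strong numbers were not always called active; many hits fall short of the cut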
Bead autofluor = counter-screen for toxin protease inhibitors: compound fluorescence | fluorescence intensity (test concentration not listed) | 360,000 compounds, 3.1% hits | compound autofluorescence counterscreen, microsphere flow cytometry; stronger effect = higher value;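 active means at least 3 SD above the mean of all compounds, about 16000 in these data; inconclusive means too few beads counted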;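 further: 100 nL of 1 mM stock went into each well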
Mtb hypoxia rep growth = also measured in Mtb hypoxia rep; calls as there; growth inhibition, %; measured here: M. tuberculosis growth (absorbance);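 0% = vehicle and 100% = reference antibiotic; read after six days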
Starred values were filed as active, the others as inactive; ? = inconclusive; . = no result given. Compounds were not picked by outcome (roughly 3.9% active in at least one column).

SMILES	ugtP null kill	Sa RN4220 lethal	BJeLR viability	PrP UTR inh	Mtb hypoxia rep	Mtb hypoxia rep growth	Bead autofluor
CC(C)c1nnc(NC(=O)C2CCCN2C(=O)Nc2ccccc2[N+](=O)[O-])s1 (stereo unspecified)	6	7.3	0	-4	5	-6	4916
Nc1ncnc2c1ncn2[C@@H]1O[C@H](CNC(=O)[C@@H](N)C2CCCCC2)[C@@H](O)[C@H]1O	2	1.1	.	-3	-15	-15	3804
O=C(Cn1cnc2c(nnn2Cc2ccccc2)c1=O)N1CCCc2ccccc21	-1	-9.3	-6	-24	11	10	6555
O=C(c1cc2cc(Br)ccc2[nH]1)N1CCC2(CC1)OCCO2	-4	-1.8	3	-32	-1	7	5348
COc1cc(C2/C(=C(/O)c3ccccc3)C(=O)C(=O)N2c2ccccn2)ccc1O (stereo unspecified)	5	7.0	-6	-14	8	-2	4602
O=C(CC1C(=O)NCCN1Cc1ccccn1)NCCc1ccccc1F (stereo unspecified)	-5	-1.1	-10	-11	1	4	5706
Cc1cccc(C)c1NC(=O)CN(C)S(=O)(=O)c1ccc(-c2ccc(=O)[nH]n2)s1	-6	-1.7	4	-5	-7	6	5344
CCOc1cccc(OCC)c2c(C)[n+](CC3CCCO3)c(C)c1-2 (stereo unspecified)	-10	2.4	3	-38	-2	-5	9913
O=c1c2ccccc2[nH]c(=S)n1-c1ccc2c(c1)OCCO2	-14	0.0	-9	-55	2	4	6411
CC(=O)Oc1cccc(N2C(=O)C3C4C=CC(C4)C3C2=O)c1 (stereo unspecified)	-6	-5.9	-2	-24	-7	2	8113
O=C1c2ccccc2C(=O)c2c1cccc2-n1nnc2ccccc21	16	23	2	-4	1	2	3536
COc1ccccc1CN(C(=O)c1ccco1)C(C(=O)NC1CCCC1)c1ccncc1 (stereo unspecified)	2	3.5	-3	-11	4	10	2843
O=[N+]([O-])c1ccccc1/C=C/C=Nn1c(-c2ccco2)n[nH]c1=S	4	4.2	.	.	4	10	.
O=C(Nc1ccnn1C1CCN(Cc2ccc(CO)o2)CC1)c1ccc2c(c1)OCO2	-4	-3.9	0	-12	-3	10	6558
O=C(Nc1nc(-c2cccc([N+](=O)[O-])c2)cs1)C(c1ccccc1)c1ccccc1	-36	-1.9	-2	-13	-2	0	2508
COc1ccc(OC)c(NC(=O)Nc2cc(NC(=O)Nc3cc(OC)ccc3OC)c(C)nc2C)c1	-4	2.6	-11	-6	0	-1	1983
COc1ccc(C(=O)Nc2ccnn2C2CCN(Cc3cccnc3)CC2)cc1	-1	2.4	-1	1	7	3	5133
COc1cc(C(=O)N2CCC(c3nc(-c4cccnc4)no3)CC2)cc(OC)c1OC	4	0.4	-15	-14	3	9	9822
O=C1c2ccccc2C(=O)N1Cc1cccnc1	7	3.0	3	-19	-1	-2	4828
NS(=O)(=O)c1ccc(C(=O)O)cc1	4	4.0	-2	-16	-5	5	5874
CCN(C=C1CC2C3CC=C4CC(O)CCC4(C)C3CCC2(C)C1=O)CC (stereo unspecified)	-5	6.3	.	-4	12	5	2872
CO/N=C/C(NC(=O)c1ccc(C(F)(F)F)cc1)C(=O)OC (stereo unspecified)	.	.	-2	-10	.	.	4543
C=CCn1c(CNS(=O)(=O)c2ccc(Br)cc2)nnc1SC	1	-0.4	9	-5	-8	2	5458
CC(C)CCNC(=O)[C@H](CSCc1ccccc1)N1Cc2ccccc2C1=O	-1	-3.7	0	-8	.	.	5845
CCn1ncc(Br)c1C(=O)Nc1cc(C)ccc1F	-8	-11	-8	-24	16	13	2900
SMILES	ugtP null kill	Sa RN4220 lethal	BJeLR viability	PrP UTR inh	Mtb hypoxia rep	Mtb hypoxia rep growth	Bead autofluor
Cc1nc2ccc(S(=O)(=O)NCC(=O)NCc3ccc4c(c3)OCO4)cc2s1	-5	-24	-7	-19	4	-8	3347
COCCCN(C(=S)NC(=O)C12CC3CC(CC(C3)C1)C2)c1c(N)n(Cc2ccccc2)c(=O)[nH]c1=O	0	1.7	-10	-13	0	12	4479
Cn1ncc(Cl)c1C(=O)Nc1nnc(C2CC2)s1	11	5.9	9	-19	-4	-3	6107
CCOC(=O)C1(CCOc2ccccc2)CCN(Cc2cc(OC)c(O)cc2Cl)CC1	5	11	3	-10	13	6	4482
Cc1ccccc1NC(=O)COc1ccc2c(c1)OC(C)(C)CC2=O	1	0.2	-12	-21	-6	12	4866
O=C(CCCc1nc(-c2ccc(Cl)cc2)no1)NC1CCCC1	4	3.5	20	9	5	6	5882
O=C(CSc1n[nH]c(-c2ccccc2)n1)c1ccc(O)c(O)c1	-4	7.9	-3	-12	13	-3	8126
CS(=O)(=O)N1CC2CCCN2c2ccc(C(F)(F)F)cc21 (stereo unspecified)	2	4.8	1	-23	-3	4	4464
Cc1noc(C)c1COc1ccc(C(=O)N2CCN(S(=O)(=O)c3cccc(F)c3)CC2)cc1	0	1.1	.	-14	7	13	3817
COc1cc(SC)ccc1C(=O)OC1CCOC1=O (stereo unspecified)	5	3.1	-1	-7	1	1	9387
O=C(COC(=O)C1CCCCC1)Nc1ccc(N2CCCCC2)cc1	17	23	-2	-10	0	-5	2349
Cc1oc(-c2ccccc2Cl)nc1CS(=O)CC(=O)NC1CC1 (stereo unspecified)	1	-0.5	-6	-1	-10	-2	5580
COc1ccc(OCCn2ccnc2C)cc1	18	7.5	4	-20	15	11	4039
Cn1nc(C(=O)Nc2cccc(Cl)c2)cc1C(=O)Nc1cccc(Cl)c1	-23	1.0	1	-12	0	1	3489
CCOC(=O)C1=C(N)OC2=C(C(=O)CCC2)C12C(=O)N1c3c(ccc(C)c32)C(C)=CC1(C)C (stereo unspecified)	-4	17	1	-21	13	14	3651
O=C(NCC1CCCO1)c1cc(C(=O)C2CC2)c[nH]1 (stereo unspecified)	-8	9.1	7	-25	11	7	6088
COc1ccc(C(=O)OCC(=O)Nc2c(C)n(C)n(-c3ccccc3)c2=O)cc1	-1	-2.5	.	.	3	13	?
Cc1c(C#N)c2ccccc2n1C	4	0.2	3	-27	-2	4	5987
O=C(Cc1c[nH]c2ccccc12)NNC(=O)c1ccccc1	11	0.2	-5	-74	11	4	2466
Cc1ccc(-c2c3c(=O)n(C)c(=O)n(C)c3cn2Cc2ccccc2)cc1	2	4.1	3	-37	13	17	8305
O=Cc1ccccc1-c1cn(CN2C(=O)c3ccccc3C2=O)nn1	.	.	-6	-20	.	.	3533
O=C(c1ccco1)N1CCN(Cc2nnnn2C2CCCCC2)CC1	7	-0.1	1	-11	-5	-6	3510
CCOc1ccc(N(C(=O)CNC(=O)c2ccco2)C(C(=O)NC2CCCC2)c2ccncc2)cc1 (stereo unspecified)	-4	3.4	3	-18	-7	-2	3766
O=C(Cc1ccccc1)N1CCN=C1SCc1cccc([N+](=O)[O-])c1	1	2.4	-14	3	6	8	4414
Cc1ccc(C(=O)N(c2ccccn2)C(C)c2ccco2)cc1 (stereo unspecified)	3	-15	-1	-51	-2	2	2524

5 of these compounds, set out differently.
mol | ugtP null kill | Sa RN4220 lethal | BJeLR viability | PrP UTR inh | Mtb hypoxia rep | Mtb hypoxia rep growth | Bead autofluor
Cc1c(C#N)c2ccccc2n1C | 4 | 0.2 | 3 | -27 | -2 | 4 | 5987
O=C(Cc1c[nH]c2ccccc12)NNC(=O)c1ccccc1 | 11 | 0.2 | -5 | -74 | 11 | 4 | 2466
Cc1ccc(-c2c3c(=O)n(C)c(=O)n(C)c3cn2Cc2ccccc2)cc1 | 2 | 4.1 | 3 | -37 | 13 | 17 | 8305
O=Cc1ccccc1-c1cn(CN2C(=O)c3ccccc3C2=O)nn1 | . | . | -6 | -20 | . | . | 3533
O=C(c1ccco1)N1CCN(Cc2nnnn2C2CCCCC2)CC1 | 7 | -0.1 | 1 | -11 | -5 | -6 | 3510

Single records, as listed above.
COc1cc(SC)ccc1C(=O)OC1CCOC1=O (stereo unspecified) is listed with ugtP null kill = 5; Sa RN4220 lethal = 3.1; BJeLR viability = -1; PrP UTR inh = -7; Mtb hypoxia rep = 1; Mtb hypoxia rep growth = 1; Bead autofluor = 9387
Cc1ccc(-c2c3c(=O)n(C)c(=O)n(C)c3cn2Cc2ccccc2)cc1 is listed with ugtP null kill = 2; Sa RN4220 lethal = 4.1; BJeLR viability = 3; PrP UTR inh = -37; Mtb hypoxia rep = 13; Mtb hypoxia rep growth = 17; Bead autofluor = 8305

Further compounds follow:
SMILES	ugtP null kill	Sa RN4220 lethal	BJeLR viability	PrP UTR inh	Mtb hypoxia rep	Mtb hypoxia rep growth	Bead autofluor
CC(C)N1CC23C=CC(O2)C(C(=O)OCc2ccccc2)C3C1=O (stereo unspecified)	7	1.1	5	-15	.	.	4326
Fc1ccc(-n2c(-c3ccc4c(c3)OCO4)n[nH]c2=S)cc1Cl	2	4.8	-1	-8	-5	6	2458
Oc1ccc(C(c2nnnn2C2CCCCC2)N2CCOCC2)cc1 (stereo unspecified)	2	3.7	4	-9	13	2	3738
Cc1cccc(NC(=O)NNC(=O)c2nn(C)cc2Br)c1	-8	7.9	2	-40	10	3	2000
c1ccc(-c2nc(N3CCNCC3)nc3ccccc23)cc1	-9	-1.4	0	-13	.	.	2497
COc1cccc(CNC(=O)c2cc(S(=O)(=O)N3CCOCC3)cn2C)c1	18	20	4	15	5	4	4436
Cc1c(C=O)c2ccccc2n1CCOc1ccccc1F	2	-1.3	3	-14	4	3	3850
Cc1cccc(OCCCCn2c(CO)nc3ccccc32)c1	0	5.0	-5	-32	10	9	4249
Cc1cc(C)nc(NS(=O)(=O)c2ccc(NC(=O)C(C)C)cc2)n1	2	3.0	13	-5	5	-3	3760
COc1ccc(C2=NOC(C)(c3nnc(-c4ccc(Cl)cc4)o3)C2)cc1 (stereo unspecified)	10	8.4	-10	-16	11	8	3903
COc1cc(/C=C/C(=O)NC(=O)c2ccccc2O)ccc1O	-4	3.9	5	-52	12	1	6434
COCc1cc(C)n(CC(=O)OC)c(=O)c1C#N	-2	2.4	-5	-26	12	13	2281
Cc1noc(C)c1S(=O)(=O)Nc1ccc2c(c1)C(=O)N([C@H](C)CO)C[C@@H](C)[C@@H](CN(C)Cc1ccc3c(c1)OCO3)O2	8	7.8	.	-29	4	8	4189
O=C(OCc1nnc(-c2ccc(Cl)cc2)o1)c1ccncc1	-14	-2.8	-7	-14	2	7	2900
Cc1ccc(S(=O)(=O)NCC(=O)NCC(=O)NCCc2ccccc2F)cc1C	7	5.2	.	-20	14	10	2972
